S aureus helic: blocks Staphylococcus aureus DNA helicase; AID 485395; purified S. aureus helicase, fluorescence unwinding assay; about half of the hits fall short of the stated cut; inhibition, %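 (tested at about 80 µM)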; 120,000 tested, 0.05% active;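 active = both duplicates at 50% or more, or one of them with a favoured structure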;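 also: 0% = mean of negative control wells and 100% = mean of positive control wells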
MgrA DNA FP: modulators of Staphylococcus aureus MgrA DNA binding; fluorescence polarization; inhibition, %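 (about 10 µg/mL by stock and volumes)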; 84,000 tested, 0.13% active; AID 602314;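 active = above 50% in either of two replicates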;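 also: 0% = protein plus DNA without compound and 100% = DNA alone without protein; higher means less MgrA bound to DNA so lower polarization; one replicate is shown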
Active calls of the source: *; · = no result given. Only part of the results is shown. The share of hits here may be higher or lower than overall.

The first three entries as a preview:
molecule,S aureus helic,MgrA DNA FP
CC1CCCCN1C(=O)Cn1cc(C(=O)C2CC2)c2ccccc21 (stereo unspecified),-13,1.9
CCCn1c(N)c(C(=O)CSc2nc3ccccc3c(=O)n2CCC)c(=O)[nH]c1=O,9,·
COc1ccc(N2CC(NC(=O)N(Cc3ccccc3)C(C)C)CC2=O)cc1 (stereo unspecified),2,·

All compounds of this part, from the first entry:
molecule,S aureus helic,MgrA DNA FP
CC1CCCCN1C(=O)Cn1cc(C(=O)C2CC2)c2ccccc21 (stereo unspecified),-13,1.9
CCCn1c(N)c(C(=O)CSc2nc3ccccc3c(=O)n2CCC)c(=O)[nH]c1=O,9,·
COc1ccc(N2CC(NC(=O)N(Cc3ccccc3)C(C)C)CC2=O)cc1 (stereo unspecified),2,·
Cc1ccccc1-n1nc2c(c1NC(=O)/C=C\c1ccc3c(c1)OCO3)CS(=O)(=O)C2,0,·
Cc1ccc(C=NN2CCN(Cc3ccccc3)CC2)cc1,10,6.1
CCOC(=O)C1CCN(c2c(C(=O)c3ccccc3)cnc3ccc(OC)cc23)CC1,-19,·
CS(=O)(=O)c1cccc(S(=O)(=O)N2CCSCC2)c1,-21,2.2
C/S(=N\S(=O)(=O)c1cccc2nsnc12)c1ccc(C(F)(F)F)cn1 (stereo unspecified),·,-1.0
CCOc1ccc(C2SCC(=O)N2c2c(C)n(C)n(-c3ccccc3)c2=O)cc1 (stereo unspecified),·,-0.7
O=C(NCCN1CCN(C(=O)c2ccc(Br)cc2)CC1)C(=O)Nc1ccc(F)cc1,·,1.2
Brc1c(CSc2nc3ccccc3[nH]2)nc2ccccn12,·,-0.4
Cc1ccc(NC(=O)C2CC(=O)n3cnnc3N2)cc1Cl (stereo unspecified),2,1.4
O=C(NC1CCCCC1)NC1CCN(CC(=O)c2ccc(Cl)cc2)CC1,18,-1.2
CSc1nc2ccc(N)cc2s1,-5,0.9
Cc1noc(/C=C/c2cccs2)c1S(=O)(=O)N1CCC(C(=O)N2CCCCC2)CC1,-18,·
CC(=NCc1cccnc1)c1ccccc1O,·,-0.6
Cc1nc2cc(NC(=O)c3ccc(N4C(=O)CCC4=O)cc3)ccc2s1,4,1.1
COc1ccc(N2C(=O)CSC2c2cccc(OC)c2OC)cc1Cl (stereo unspecified),-13,·
CN(C)C(=O)/C=C/c1ccccc1,·,-1.4
Cc1nc2ccccc2c(C(=O)O)c1O,·,-1.0
Cc1nc2c(o1)N(c1ccccc1)C(N)=C(C#N)C2c1c(Cl)nn(-c2ccccc2)c1C (stereo unspecified),20,-3.0
CC1(C)C(C#N)=C(SCC(N)=O)NC(=O)C1C#N (stereo unspecified),-3,·
Cc1cc(C(=O)O)ccc1-n1c(C)ccc1C,-22,·
COc1cc2c(C(=O)NCc3ccc4c(c3)OCO4)cn(C)c(=O)c2cc1OC,42,·
CCn1nc(C)cc1-c1n[nH]c(=S)n1-c1ccccc1,4,·

Next structures.
molecule,S aureus helic,MgrA DNA FP
Cc1ccc(-c2nnc(N3CCOCC3)c3ccccc23)cc1S(=O)(=O)N1CCN(C)CC1,10,-1.1
Cn1ncc2c(=O)[nH]cnc21,·,-1.1
Cc1nn(Cc2ccccc2Cl)c2sc(C(=O)NC(C)(C)C)cc12,34,·
COC(=O)c1ccccc1NC(=O)CN1Cc2ccccc2C1=O,-30,·
Cc1cccc(CCNC(=O)c2cc3c(=O)n(C)c4ccccc4c3s2)c1,17,0.0
CN(C)c1cccc(N(C)C)c1CNC(=O)C(C)(C)C,·,-0.5
Cc1ccc2oc(=O)c(/C=C(\O)c3ccco3)nc2c1,-93,·
[O-]/[N+](=C\c1ccc(F)cc1)c1ccc(Cl)cc1,-11,·
CC(=O)Nc1ccc(OCc2c(C)noc2C)cc1,-13,·
Cc1cc(C(=O)OCc2cc(Cl)cc3c2OCOC3)on1,-3,·
Cc1cc(-c2ccccc2)nc2cc(C(=O)NCC3CCCO3)nn12 (stereo unspecified),-13,·
COC(=O)c1ccc(Oc2nc(Nc3ccccc3F)nc(N3CCCCC3C)n2)cc1 (stereo unspecified),-10,1.9
Cc1cc(OC(C)C)nc(-c2ccccc2O)n1,7,0.7
CC(C)(C)C(=O)/C=C1\SCC(=O)N1Cc1ccc(C#N)cc1,-5,·
CCCCN(CC)c1nc(N)c2c(N)nc(SCC(=O)O)cc2c1C#N,-15,·
Cc1cccc(/C(N)=N/O)c1,·,-2.5
CCOc1ccc(S(=O)(=O)NCc2ccc3c(c2)OCO3)cc1,13,-0.9
CCOC(=O)N1CCC(NC(=O)c2cc(C(=O)NCc3ccc(F)cc3)ccc2CO)CC1,11,0.4
O=C(NCc1ccccc1)c1ccc2nonc2c1,·,-1.3
Cc1onc2c(=O)n(-c3ccccc3)nc(-c3ccccc3)c12,·,4.3
O=C(Cn1ccc2cc(S(=O)(=O)N3CCCC3)ccc21)NCc1ccccc1,-20,·
CC(Sc1nnnn1-c1ccc(O)cc1)C(=O)c1ccccc1 (stereo unspecified),12,·
O=C(COc1ccccc1C(=O)O)Nc1cccc2ccccc12,-2,-7.1
CN1CCN(c2nc(C34CC5CC(CC(C5)C3)C4)cs2)CC1,6,·
O=C(Cc1coc2cc3c(cc12)CCC3)OCC(=O)N1CCCC1=O,-14,·

New compounds follow
molecule,S aureus helic,MgrA DNA FP
Cc1nnc(Nc2c(C)n(C)n(-c3ccccc3)c2=O)[nH]c1=O,-24,·
Cc1ccc(OCCSc2nnc(N)s2)cc1,2,·
O=C(NC(Cc1cc(=O)[nH]c2ccccc12)C(=O)O)c1ccc(Cl)cc1 (stereo unspecified),·,0.3
O=C(O)/C=C/C(=O)Nc1ccc(Br)c(Cl)c1,1,·
Cc1noc(Nc2ccc(NC(=O)Cc3cccs3)cc2)c1C,-17,·
C#CCSc1nc2cc(Cl)ccc2o1,-17,·
CNC(=O)Cn1nc(C)c(S(=O)(=O)N2CCOCC2)c1C,-9,·
C=CC(=O)NC(=O)NC12CC3CC(CC(C3)C1)C2,13,·
CCC(=O)N1CCc2cc(S(=O)(=O)CCC(=O)N(C)c3ccc(Br)cc3)ccc21,7,4.0
Cc1cc(NC(=O)CCCO)n[nH]1,·,0.2
S=c1n(CN2CCCC2)nc(C2COc3ccccc3O2)n1-c1ccccc1 (stereo unspecified),-2,·
O=S(=O)(c1ccc(SCc2cc3c(cc2Br)OCCO3)nc1)N1CCOCC1,-11,·
COc1ccccc1CNC(=O)CCn1c(=O)c2ccccc2n(Cc2ccc(F)cc2)c1=O,13,0.1
CCCn1nc(C(=O)NC2CCC(C)CC2)ccc1=O (stereo unspecified),31,·
COc1ccc(CN(Cc2ccco2)C(=O)c2cc3ccccc3oc2=O)c(OC)c1,0,1.2
COc1ccc(-c2nn(-c3ccccc3)cc2/C=N/O)cc1,4,0.9
CCCNC(=O)c1ccc2c(c1)C(=O)N(CC(C)C)C2=O,1,2.0
COC(=O)C(CC(=O)c1ccc(Br)cc1)c1ccccc1 (stereo unspecified),·,0.7
Cc1cccc2c(O)c(/C=C3/C(=O)N(c4ccccc4)NC3c3ccccc3)c(=O)[nH]c12 (stereo unspecified),10,-0.3
Cn1nc(CC(=O)Nc2nc(-c3ccccc3)cs2)c2ccccc2c1=O,3,0.8
Cc1ccc(-c2nc(I)ccc2O)cc1,-5,8.8
FC(F)(F)c1cccc(NC(=S)NCc2ccco2)c1,·,0.1
Cc1ccc(C)c(-c2csc(N)n2)c1,-16,·
CCOC(=O)C12CCC(C(=O)OCC)(CC1=O)C(=O)C2,·,1.0
O=C(CC(=O)c1ccccn1)c1ccccn1,·,2.2

(continued)
molecule,S aureus helic,MgrA DNA FP
COC(=O)c1ccc(S(=O)(=O)N2CCN(C)CC2)n1C,-9,·
CCN(C(=O)Cn1ncc2c(=O)oc3ccc(C)cc3c21)c1ccccc1,13,·
Cc1ccc(NC(=O)c2c(C)nc3sc(C(=O)NC4CCCC4)c(N)c3c2-c2cccnc2)c(C)c1,7,·
CCOC(=O)N1CCC(n2c(SCC(=O)c3ccccc3)nc3ccccc3c2=O)CC1,9,3.5
CCOC(=O)CSc1nc(C(C)(C)C)cc(C(F)(F)F)c1C#N,0,-0.2
COc1ccc(Br)cc1/C=C/C(=O)NCC(=O)O,-6,1.1
COC(=O)c1ccccc1S(=O)c1cccc2cccc(CO)c12 (stereo unspecified),·,-0.5
Cc1ccc(C2=NC3(CCN(C(=O)OC(C)(C)C)CC3)NC2=S)cc1,1,0.7
O=S1(=O)CCC(c2ccccc2)C1 (stereo unspecified),4,-1.1
NC(=O)CS(=O)(=O)c1ccccc1,-2,-0.5
Fc1cccc(NC(=S)NCc2ccc3c(c2)OCO3)c1,·,0.9
CC(Oc1cc(OC(C)C(=O)O)c2c(c1)oc(=O)c1ccccc12)C(=O)O (stereo unspecified),-8,·
CC(=O)N1CCc2cc(S(=O)(=O)CCC(=O)N3CCc4ccccc43)ccc21,7,0.6
CCOC(=O)CN1CC23C=CC(O2)C(C(=O)NCc2ccc(C)cc2)C3C1=O (stereo unspecified),-30,·
N#CC1=C(N)SC(N)=C(C#N)C1CCC1CCCCC1,-88,21
CN(CC(=O)N1CCc2ccccc21)S(=O)(=O)c1cccs1,1,·
Cc1cc(C)c(C#N)c(SCc2cc(=O)[nH][nH]2)n1,12,1.9
Cc1nn(CC(=O)O)c(=N)s1,-12,·
Nc1cccc(C2=NCCN2)c1,9,-1.5
N#Cc1ccc(CSc2nc3ccc(Cl)cc3[nH]2)cc1,6,·
COc1ccc(-c2nnn(-c3ccc(Cl)cc3Cl)c2N)cc1,·,-0.6
O=C1C(Nc2ccccc2)=CC(=O)c2ncccc21,·,3.5
Nc1nnnn1N=Cc1ccc(-c2ccc3c(c2)COC3=O)o1,-9,14
CSc1nc2ccc(S(=O)(=O)N3CCCC3)cc2s1,16,4.0
COc1ccc(-c2nnc(NC(=O)C3CC3)o2)cc1,1,·

An excerpt of these results, with the structure last:
S aureus helic	MgrA DNA FP	compound
-9	·	COC(=O)c1ccc(S(=O)(=O)N2CCN(C)CC2)n1C
-9	14	Nc1nnnn1N=Cc1ccc(-c2ccc3c(c2)COC3=O)o1
-8	·	CC(Oc1cc(OC(C)C(=O)O)c2c(c1)oc(=O)c1ccccc12)C(=O)O (stereo unspecified)
1	·	CN(CC(=O)N1CCc2ccccc21)S(=O)(=O)c1cccs1

The list continues:
molecule,S aureus helic,MgrA DNA FP
NC(=Nc1cc(Cl)cc(Cl)c1)N1CCN(Cc2ccccc2)CC1,-4,-0.5
O=C1CSC(c2cccnc2)N1Cc1ccc2c(c1)OCO2 (stereo unspecified),·,0.7
O=c1[nH]cc(S(=O)(=O)NCc2ccccc2)c(=O)[nH]1,5,·
CCC1CCCCN1CCCNC(=O)C1CCCN(S(=O)(=O)N2CC(C)CC(C)C2)C1 (stereo unspecified),-25,·
O=S(=O)(c1ccccc1)n1nccc1-c1cc(-c2ccccc2)no1,-16,·
CC(C)(C)c1csc(Cc2ccc([N+](=O)[O-])cc2)n1,·,-0.5
N#Cc1ccc(/C=N/NC(=O)c2cnn(-c3ccc([N+](=O)[O-])cc3)c2C(F)(F)F)cc1,·,-2.2
CC(=O)Nc1ccc(N=Cc2cccc3ccccc23)cc1,4,0.3
CCOc1ccc(NC(=S)N(C)Cc2nccn2C)cc1,-2,·
COc1ccc(NC(=O)c2cc3nc(-c4ccccc4)cc(C(F)(F)F)n3n2)c(OC)c1,·,3.7
CSc1nnc(-c2csc(S(=O)(=O)Nc3cccc(Cl)c3)c2)n1C,9,·
O=C(Nc1nnc(-c2ccc3c(c2)CCCC3)o1)c1ccccc1,-17,·
Oc1ccccc1CNc1ccc(C2CCCCC2)cc1,-15,0.9
CC(C)Cn1c(CN(Cc2ccccc2)Cc2ccccc2)nc2c1c(=O)[nH]c(=O)n2C,15,0.6
CC(C)/C=C1\CC/C(=C\c2ccc(N(C)C)cc2)C1=O,-323,-4.6
Cc1cn(C(=O)c2ccc(Cl)cc2Cl)c(C)n1,8,-6.2
COc1ccc2nc(Cl)c(CNC3CCCC3)cc2c1,17,-0.5
Cc1sc(NC(=O)Nc2ccccc2)c(C(N)=O)c1C,0,9.6
CC(=O)N1c2ccccc2NC2=C(C(=O)CC(c3ccccc3F)C2)C1c1ccccc1 (stereo unspecified),12,-0.6
CCOc1ccc(NC(=O)C(=O)NCCN2CCN(Cc3ccc(F)cc3)CC2)cc1,·,-0.8
COC(=O)CSc1nc(C)nc2c1c(=O)n(C)c(=O)n2C,14,-7.5
COc1cccc(CNc2ccc(N3CCCCC3)cc2)c1OC,21,4.8
O=[N+]([O-])c1ccc(Sc2ccccn2)nc1,·,0.1
COc1ccc(NC(=O)Nc2ccc(N3CCOCC3)cc2)cc1,-2,-0.2
Cc1ccc(S(=O)(=O)c2nc(-c3ccccc3)oc2Sc2nc3ccccc3[nH]2)cc1,6,·
CCOC(=O)N1CCC(n2c(SCC(=O)Nc3ccc(C)c(Cl)c3)nc3ccccc3c2=O)CC1,4,·

Screens from PubChem BioAssay.
